# Mtb H37Rv = Mycobacterium tuberculosis H37Rv growth inhibition, putative kinase inhibitor library, confirmatory dose response (AID 2842). M. tuberculosis H37Rv growth inhibition; higher % means a stronger effect; some inactives read as strong as hits. inhibition, % at 10 µg/mL; hits with a dose series show IC90 in µg/mL. 24,000 compounds, 5.2% hits;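 active = confirmed in a dose series; inconclusive = mostly over 85% at the one dose but not retested; inactive = below 85% or not confirmed; about a fifth of its hits are not listed in these tables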;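 also: bacteria incubated one week before Alamar blue readout; 0% = bacteria only wells and 100% = bacteria with high antibiotic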
# * marks the source's active call; other numbers are inactive results; ? = inconclusive. Some of the compounds tested. The share of hits here may be higher or lower than overall.
SMILES	Mtb H37Rv
CCN(CC)S(=O)(=O)c1ccc(C(=O)Nc2sc3c(c2C(N)=O)CCN(C)C3)cc1	-5%
COc1ccc(NC(=O)c2cnc3sccn3c2=O)c(OC)c1	1%
Cn1c(=O)c2c(nc(NCCc3ccccc3)n2Cc2ccc(F)cc2)n(C)c1=O	-2%
COc1ccc(N2CC(NC(=O)c3ccc(C(F)(F)F)cc3)CC2=O)cc1 (stereo not drawn)	-5%
O=C(CSc1ccnc(=O)[nH]1)NCc1ccccc1	-8%
Cn1c(=O)c2c(nc(NCc3ccccc3)n2Cc2cccc3ccccc23)n(C)c1=O	-7%
O=C(Cc1cccc2ccccc12)Nc1nnc(-c2ccccc2Cl)s1	11%
O=C(CCCCCn1c(=O)[nH]c2ccsc2c1=O)NCCc1ccc(Cl)cc1	-12%
Cc1ccc(C(=O)Nc2nc3ccc(S(C)(=O)=O)cc3s2)cc1	9%
COc1ccc(-n2c(N)cc(=O)nc2SCC(=O)NC2CCCCC2)cc1	-11%
O=C(CSc1ccc2nnc(-c3cccc(F)c3)n2n1)Nc1ccc(Br)cc1	-6%
CCc1ccc(NC(=O)COc2cccc3c2CCNC3=O)cc1	-12%
COc1ccc(N2C(=O)C(Cl)=C(Nc3ccc(C)cc3)C2=O)cc1	-5%
O=C(CC1CCS(=O)(=O)C1)Nc1ccc(F)cc1 (stereo not drawn)	-4%
Cc1ccc2cc(CCNC(=O)c3ccc(S(=O)(=O)N4CCCC4)cc3)c(=O)[nH]c2c1	-6%
Cc1nn(C(C)CC(=O)N2CCN(S(=O)(=O)c3ccccc3)CC2)c(C)c1Br (stereo not drawn)	-2%
COc1ccc(NC(C)=O)cc1NS(=O)(=O)c1cc2c3c(c1)C(C)C(=O)N3CCC2 (stereo not drawn)	-4%
O=C(COC(=O)c1ccc2c(c1)C(=O)N(c1ccccc1Cl)C2=O)Nc1cccc(C(F)(F)F)c1	2%
O=C(CCN1CCCCC1)Nc1c(-c2ccccc2)c2cc(Br)ccc2[nH]c1=O	8%
CCCc1cc(=O)[nH]c2nnc(SCc3cccc(C)c3)n12	-8%

# Arranged by formula weight (low to high): some entries from above
SMILES	Mtb H37Rv
O=C(CCCCCn1c(=O)[nH]c2ccsc2c1=O)NCCc1ccc(Cl)cc1	-12%
COc1ccc(NC(C)=O)cc1NS(=O)(=O)c1cc2c3c(c1)C(C)C(=O)N3CCC2 (stereo not drawn)	-4%
O=C(CCN1CCCCC1)Nc1c(-c2ccccc2)c2cc(Br)ccc2[nH]c1=O	8%

# Back to the main list, starting six compounds before the break.
SMILES	Mtb H37Rv
Cc1ccc2cc(CCNC(=O)c3ccc(S(=O)(=O)N4CCCC4)cc3)c(=O)[nH]c2c1	-6%
Cc1nn(C(C)CC(=O)N2CCN(S(=O)(=O)c3ccccc3)CC2)c(C)c1Br (stereo not drawn)	-2%
COc1ccc(NC(C)=O)cc1NS(=O)(=O)c1cc2c3c(c1)C(C)C(=O)N3CCC2 (stereo not drawn)	-4%
O=C(COC(=O)c1ccc2c(c1)C(=O)N(c1ccccc1Cl)C2=O)Nc1cccc(C(F)(F)F)c1	2%
O=C(CCN1CCCCC1)Nc1c(-c2ccccc2)c2cc(Br)ccc2[nH]c1=O	8%
CCCc1cc(=O)[nH]c2nnc(SCc3cccc(C)c3)n12	-8%
COc1cccc(-c2nnc(NC(=O)/C=C/c3cccs3)o2)c1	3.5µg/mL*
Cc1c(C)n2c3c(=O)n(Cc4ccccc4)c(=O)n(C)c3nc2n1Cc1ccccc1	-8%
CC(=O)c1cccc(NC(=O)c2c[nH]c(=O)n(-c3ccc(F)c(Cl)c3)c2=O)c1	4%
COc1ccc(Cn2cc(C(=O)c3ccc(C)c(C)c3)c(=O)c3cc4c(cc32)OCCO4)cc1	78%
Cc1csc2ncc(C(=O)Nc3ccccc3C#N)c(=O)n12	-4%
CCOc1ccc(C(=O)Nc2c(N)nc(SCC(=O)Nc3ccccc3F)[nH]c2=O)cc1	-8%
CCOc1ccc2c(c1)c1nnc(-c3ccc4c(c3)OCO4)c-1cn2Cc1ccccc1	32%
CCCC(=O)Nc1c(C(=O)Nc2ccc3c(c2)OCCO3)oc2ccccc12	-2%
CCOC(=O)c1sc2nc(NC(C)=O)sc2c1C	?
CCOC(=O)c1nn(-c2ccc(OC)cc2)c(=O)c2c(NC(=O)c3ccc(Cl)c([N+](=O)[O-])c3)scc12	-1%
C(=N\n1cnnc1)/c1ccc(-n2nc(-c3ccccc3)cc2-c2ccccc2)cc1	15µg/mL*
O=C(Nc1nnc(-c2ccc3c(c2)CCCC3)o1)c1ccccc1Br	<0.2µg/mL*
COc1ccc(Cl)cc1-n1nnc(-c2nc(-c3ccc4c(c3)OCO4)no2)c1N	5%
CCN(C(=O)c1ccc(S(=O)(=O)N2CCCCC2)cc1)C1CCS(=O)(=O)C1 (stereo not drawn)	-3%
CCOC(=O)c1nn(-c2ccc(F)cc2)c(=O)c2c(NC(=O)c3ccc(OCC)cc3)scc12	-16%
CC(=O)Nc1ccc(NC(=O)CSC2=NS(=O)(=O)c3ccccc3N2)cc1	-9%
CCC(C)NC(=O)C(=O)c1c[nH]c2ccccc12 (stereo not drawn)	9%
O=C(COc1ccc(Cl)cc1Cl)Nc1nnc(C2=COCCO2)o1	11%
COc1ccc(C(=O)Nc2sc3c(c2C(N)=O)CCN(C(C)C)C3)cc1	1%
COc1cc(-c2nc(C(N)=O)c3[nH]c(=O)n(-c4ccc(F)cc4)c3n2)cc(Br)c1O	-5%

# Continuation:
SMILES	Mtb H37Rv
O=C(Nc1nnc(-c2cc(Cl)ccc2Cl)o1)c1ccc(Cl)s1	1.9µg/mL*
O=C(CNCc1ccco1)Nc1ncc(Cc2ccc(Cl)c(Cl)c2)s1	28%
Nc1nc(SCC(=O)Nc2ccc(F)cc2F)[nH]c(=O)c1NC(=O)c1ccc(C(F)(F)F)cc1	-6%
O=C1CCc2cc(S(=O)(=O)Nc3ccc4c(c3)OCCO4)cc3c2N1CC3	-2%
Cc1ccc2nc(N3C(=O)C(O)=C(C(=O)c4cccs4)C3c3ccccc3)sc2c1 (stereo not drawn)	1%
CCOc1cc(-c2nnc(NC(=O)c3ccc(Br)s3)o2)cc(OCC)c1OCC	73%
COC(=O)CSc1nc2c(c(=O)[nH]c(=O)n2C)n1CCC(C)C	1%
N#Cc1ccc(C(=O)Nc2sc3c(c2C(N)=O)CCN(Cc2ccccc2)C3)cc1	-7%
COc1ccc(C(=O)Nc2sc3c(c2C#N)CCN(C(C)=O)C3)c(OC)c1	2%
CCC(C(=O)Nc1c(C(=O)Nc2cc(OC)ccc2OC)oc2ccccc12)c1ccccc1 (stereo not drawn)	-5%
CC(=O)c1cccc(NC(=O)CSc2nnc(Cc3ccccc3)c(=O)n2N)c1	6%
CC(=O)N1CCc2c(sc(NC(=O)c3ccc4ncsc4c3)c2C(N)=O)C1	70%
CC(=O)N1CCc2c(sc(NC(=O)c3ccc([N+](=O)[O-])o3)c2C#N)C1	?
Cc1ccc(-c2nnn3c2nc(NCc2ccccc2Cl)c2ccccc23)cc1	-3%
O=C(CSc1ccc2nnc(CCNC(=O)c3ccc(F)cc3)n2n1)NCCc1ccccc1	2%
O=C(Nc1nnc(-c2ccc3c(c2)OCCO3)o1)c1cccc(Oc2ccccc2)c1	94%
O=C(Nc1nnc(-c2ccc(Br)cc2)o1)c1ccc(S(=O)(=O)N2CCCC2)cc1	71%
COc1cc([N+](=O)[O-])cc(/C=N/Nc2nc(=O)[nH]nc2C)c1O	-25%
COc1cccc(-c2csc(/C(C#N)=C\c3ccco3)n2)c1	17%
CCc1ccccc1NC(=O)CSC1=NS(=O)(=O)c2ccccc2N1	-3%

# Going on with the list:
SMILES	Mtb H37Rv
O=C(/C=C\c1ccc([N+](=O)[O-])cc1)N(Cc1cccnc1)c1nc2c(F)cc(F)cc2s1	-2%
O=C(Nc1ccc(F)cc1F)c1cnc2sccn2c1=O	-3%
COc1cccc(/C=C2\SC(=S)N(C(CCC(=O)O)C(=O)O)C2=O)c1 (stereo not drawn)	-18%
CCc1cccc(CC)c1NC(=O)Cn1cnc2scc(-c3ccc(OC)cc3)c2c1=O	-14%
Cc1ccc(-n2ncc3c(NNC(=O)c4ccc(Cl)cc4Cl)ncnc32)c(C)c1	13%
COc1ccc(-c2nnc3ccc(SCc4ccc(F)cc4)nn23)cc1OC	-7%
O=C(Nc1ccc2c(c1)OCCO2)c1c[nH]c(=O)n(-c2ccc(F)c(Cl)c2)c1=O	-1%
Cc1ccc(-n2ncc3c(NNC(=O)c4ccc(Cl)cc4Cl)ncnc32)cc1Cl	76%
COc1ccc(NC(=O)CSC2=NS(=O)(=O)c3ccc(C)cc3N2)c(OC)c1	-10%
c1ccc2sc(N3CCN(c4nc5cc6c(cc5s4)OCO6)CC3)nc2c1	-10%
O=C(CSc1nnc2[nH]c(=O)ccn12)Nc1cccc2ccccc12	45%
COCCn1c(SCC(=O)Nc2ccc3c(c2)OCCO3)nc2c(c1=O)SC(C)C2 (stereo not drawn)	0%
Clc1ccc2nc(N3CCN(c4ccccc4)CC3)sc2c1	-3%
Cc1cc(C)n(C(C[N+](=O)[O-])c2ccc(Cl)cc2)n1 (stereo not drawn)	65%
O=C(O)c1cccnc1SC1CC(=O)N(c2ccc(Cl)cc2)C1=O (stereo not drawn)	-1%
CCS(=O)(=O)c1ccc(C(=O)N=c2sc3c(OC)ccc(OC)c3n2C)cc1	-7%
O=C1Nc2ccc(S(=O)(=O)Nc3ccc(N4CCOCC4)cc3)c3cccc1c23	-16%
CCOC(=O)c1[nH]c2ccccc2c1NC(=S)Nc1ccc(Cl)cc1	73%
O=C(CSc1nccc2ccccc12)Nc1ccccc1C(F)(F)F	1%
COc1ccc(NC(=O)c2oc3ccccc3c2NC(=O)C2CC2)cc1OC	-3%

# Continued:
SMILES	Mtb H37Rv
Cc1cccc(NC(=O)CSc2nc(N)c(NC(=O)c3ccc(Br)cc3)c(=O)[nH]2)c1C	15%
CCOc1ccc(-c2csc3ncn(CCOc4ccccc4)c(=O)c23)cc1	-1%
Cn1c(/C(C#N)=C(\O)c2ccc(Cl)s2)nc2ccccc21	?
O=c1[nH]ncc(N/N=C\c2ccccn2)c1Br	-10%
CCN(CC)CCCN1C(=O)C(=O)/C(=C(/O)c2ccc(OC)cc2)C1c1ccncc1 (stereo not drawn)	5%
Cc1ccc(C(=O)CSc2ncc(C(=O)Nc3ccccc3)c(=O)n2C)cc1	-11%
Cn1cc(/C=C2\SC(=O)N(CCC(=O)O)C2=O)c2ccccc21	6%
C=CCn1c2c(c(=O)[nH]c1=O)C(c1cccc(C)c1)C1=C(COC1=O)N2 (stereo not drawn)	-3%
CC(C)C(=O)N(Cc1ccccc1)c1nnc(C23CC4CC(CC(C4)C2)C3)s1	7%
COc1ccc(C(=O)Nc2ccc(-c3nc4ccccc4s3)cc2)cc1	1%
O=C(Nc1nnc(-c2ccncc2)o1)c1ccc(Br)cc1	82%
N#C/C(=C/c1ccc(-c2ccc([N+](=O)[O-])cc2)o1)C(=O)N1CCOCC1	-11%
O=c1[nH]c(N/N=C/c2ccccc2F)nnc1-c1ccccc1	6%
CCOC(=O)c1ccc(NS(=O)(=O)c2ccc3[nH]c(=O)cc(C)c3c2)cc1	-11%
O=C(CCCl)Nc1c(C(=O)Nc2cccc(Cl)c2)oc2ccccc12	-1%
CCc1ccc(C(=O)c2cn(CC(=O)Nc3ccc4c(c3)OCCO4)c3cc4c(cc3c2=O)OCO4)cc1	4%
CCOC(=O)N1CCN(CC(=O)c2ccc(O)c(C)c2O)CC1	-14%
Cc1ccc2cc(CCNC(=O)c3ccc(Cl)c([N+](=O)[O-])c3)c(=O)[nH]c2c1	2%
O=c1c(S(=O)(=O)c2ccc(Cl)cc2)cn(Cc2ccc(F)cc2)c2ccc(F)cc12	9%
COc1ccc(-n2ccnc(SCc3ccc(Cl)cc3)c2=O)cc1OC	-7%

# Next section.
SMILES	Mtb H37Rv
COc1cccc2sc(Nc3nnc(-c4ccccc4)o3)nc12	6.1µg/mL*
O=C(Oc1ccc2c(c1)O/C(=C\c1cccs1)C2=O)c1ccco1	49%
COc1cccc2sc(NNC(=O)c3c(F)cccc3F)nc12	8%
CNC(=O)Cn1cnc2c(cnn2-c2ccc(C)cc2C)c1=O	7%
O=C1CCc2cc(S(=O)(=O)NCCc3ccccc3)cc3c2N1CC3	9%
CCn1c(SCC(=O)Nc2cccc(C)c2C)nc2c(c1=O)SC(C)C2 (stereo not drawn)	3%
Cc1nnc(SCCn2c(N3CCCC(C)C3)nc3c2c(=O)[nH]c(=O)n3C)s1 (stereo not drawn)	3%
CC1CCN(c2nc3c(c(=O)n(C)c(=O)n3C)n2CCSc2ncccn2)CC1	1%
O=C(Nc1nc(-c2cc(Cl)ccc2Cl)cs1)c1ccc(S(=O)(=O)N2CCCC2)cc1	21%
O=C(NCCSc1c(-c2ccc(Cl)cc2)[nH]c2ccccc12)c1ccc(-c2ccccc2)cc1	8%
Cc1ccccc1C(=O)Nc1sc2c(c1C(N)=O)CC(C)CC2 (stereo not drawn)	15%
Cc1nc2ccc(S(=O)(=O)Nc3cccc(-c4nc5cccnc5s4)c3C)cc2s1	-10%
O=C(Cn1cnc2c(cnn2-c2ccccc2)c1=O)Nc1cccc(Cl)c1	23%
O=C(Nc1c(C(=O)Nc2ccccc2)oc2ccccc12)c1ccccc1	-4%
O=C(CSc1nc2c([nH]c3ccccc32)c(=O)n1-c1ccccc1F)N1CCN(c2ccccc2)CC1	13%
CCOC(=O)Cn1c(-c2ccccc2)cn2c3c(=O)n(C)c(=O)n(C)c3nc12	-5%
COc1cccc(C(=O)CC2(O)C(=O)Nc3c(C)cccc32)c1 (stereo not drawn)	1%
O=C(CCCS(=O)(=O)c1ccccc1)Nc1nc2c(F)cc(F)cc2s1	7%
COc1ccc(-c2n[nH]c(C)c2-c2ccc3c(c2)OCCCO3)c(O)c1	64%
COc1ccc(N2CC(NC(=O)N3CCN(C(=O)c4ccco4)CC3)CC2=O)cc1 (stereo not drawn)	1%

# Screening data from PubChem.
